Screening results: PubChem, several laboratories
Sa ugtP lethal: growth inhibition of ugtP-null S. aureus, primary screen, RN4220 ugtP deletion, OD600; hit rate 0.54% among 330,000; 16 h; some inactives read as strong as hits; AID 1259309, 2017; growth inhibition, % (no concentration beside the values);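 active means z-score under -3 and OD600 up to 0.15 on both plates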;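 further: plate controls were untreated wells for no effect and antibiotic for full effect; wells of about 80 µL received 100 nL stock; the first replicate is given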
RN4220 kill: growth inhibition of S. aureus RN4220, primary screen, OD600. 16 h. inhibition, % (test concentration not listed). hit rate 0.33% among 330,000. AID 1259311, 2017;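 active means z-score of -3 or lower and OD600 up to 0.18 on both plates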;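 further: plate controls were untreated cells for no effect and reference antibiotic for full effect; stock transfer was 100 nL into about 80 µL; one replicate is shown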
PrP 5UTR inh: inhibition of PrP 5' UTR reporter expression; inhibition, % (concentration not given with the values); cell-based PrP 5' UTR mRNA reporter, plate reader; hit rate 0.35% among 340,000;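 active means every replicate at 50% or more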;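 further: 0 = median of the neutral control wells; tested in H4 reporter cells; numbers are from one replicate; inactives centre near -14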
Mtb hypoxia rep: PubChem AID 1159583; fluorescence inhibition, % (concentration not given with the values); hit rate 0.1% among 300,000; M. tuberculosis hypoxia-regulated fluorescent reporter, fluorescence;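 active means 35 to 45% if threefold the growth effect, above 45% if 1.5-fold the growth effect; inactive means the rest, general growth blockers included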;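 further: wells of about 50 µL received 100 nL stock; 0% = vehicle wells and 100% = reference inhibitor wells; whole bacteria with a GFP reporter of the hypoxia response; strong numbers were not always called active; many hits fall short of the cut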
BJeLR lethal: MLPCN primary cell-based screen for lethality selective to Ras in HRASV12 cells; hit rate 0.17% among 300,000; inhibition, % (test concentration not listed); BJeLR (HRASV12) viability, CellTiter-Glo ATP luminescence, 48 h; reference of the scale not given here;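 active means replicate mean above 50%; inconclusive means above 50% but judged a plate artefact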;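 further: 50 nL library stock added to about 25 µL; numbers are from one replicate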
Bead autofluor: compound fluorescence in toxin protease inhibitor counterscreen | compound autofluorescence counterscreen, microsphere flow cytometry; hits give high values | fluorescence intensity (concentration not given with the values) | hit rate 3.1% among 360,000;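 active means at least 3 SD above the mean of all compounds, about 16000 in these data; inconclusive means too few beads counted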;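 further: 100 nL of 1 mM stock went into each well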
Mtb hypoxia rep growth: recorded beside Mtb hypoxia rep, whose call it bears; growth inhibition, %; measured here: M. tuberculosis growth (absorbance);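 0% = vehicle and 100% = reference antibiotic; read after six days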
The depositor's hits bear a star; ? = inconclusive; nt = no result given. Hits appear at their usual frequency, and some 4.1% of all compounds hit somewhere here.

SMILES | Sa ugtP lethal | RN4220 kill | PrP 5UTR inh | Mtb hypoxia rep | Mtb hypoxia rep growth | BJeLR lethal | Bead autofluor
COc1ccc(-c2c(-c3ccc(OCC(=O)NN)cc3O)n[nH]c2C)cc1OC | 4.5 | 2.5 | -21.2 | -0.7 | -9.7 | -7.8 | 4044
O=C1CN(C(=O)COC(=O)CNC(=O)c2ccc(Br)o2)c2ccccc2N1 | 4.6 | 4.5 | -14.3 | -19.5 | -5.9 | -4.3 | 4341
CCN(C(=O)CSc1nnnn1-c1ccccc1)c1c(N)n(Cc2ccccc2)c(=O)[nH]c1=O | 3.2 | 4.6 | 1.8 | 0.2 | 7.0 | 5.4 | 2520
O=S(=O)(Nc1nccs1)c1ccc(Nc2nnc(-c3ccccc3)c3ccccc23)cc1 | nt | nt | -19.6 | nt | nt | -8.8 | 2601
COc1ccc(CC(NC(C)=O)C(=O)NC2CCN(c3nnnn3-c3ccccc3)CC2)cc1OC (configuration not stated) | 4.2 | 2.3 | nt | 0.1 | 2.0 | 5.4 | nt
COc1ccccc1CNC(=O)C(C)Sc1ccsc1[N+](=O)[O-] (configuration not stated) | 5.1 | 17.1 | -8.7 | 11.9 | 2.7 | 5.3 | 2607
COc1cccc(CNC(=O)C2CCN(S(=O)(=O)N3CCCC3)CC2)c1 | 4.9 | 1.9 | -5.4 | 3.3 | 5.1 | -6.0 | ?
O=C1SC(Cc2ccccc2)C(=O)N1c1ccccc1 (configuration not stated) | 3.9 | -0.7 | nt | 18.5 | 12.4 | 89.2* | nt
CN(C)S(=O)(=O)c1ccc(C(=O)NNc2nc(-c3ccccc3)c3cc(Br)ccc3n2)cc1 | -1.8 | 9.3 | -14.5 | 1.8 | 14.3 | -21.6 | 2093
O=C1C[C@H]2[C@H](CO)[C@@H](OC(=O)c3ccc(-c4ccccc4)cc3)C[C@H]2O1 | nt | nt | -34.3 | nt | nt | -0.7 | 5543
Cc1cc(NC(=O)CSc2ncc(C(=O)O)n2-c2ccc(F)cc2)no1 | 4.3 | 6.5 | -2.9 | 7.4 | 9.9 | nt | ?
COC(=O)C1=C(c2ccc(OC(F)(F)F)cc2)CC2CCC1N2C(=O)N1CCC(O)CC1 (configuration not stated) | -3.2 | 6.2 | nt | 3.6 | 0.0 | nt | nt
C=CCn1c(SCC(=O)Nc2c(C)n(C)n(-c3ccccc3)c2=O)nc2scc(-c3ccccc3)c2c1=O | 5.6 | 5.4 | 11.4 | -3.4 | 0.1 | 10.6 | 3235
S=c1[nH]nc(-c2ccccn2)n1N=Cc1ccccc1 | 13.1 | 7.4 | nt | -2.6 | 2.0 | nt | nt
CCOC(=O)/C(C#N)=C/c1cn(CCC(=O)O)nc1-c1ccc(OC)cc1 | 5.9 | 0.5 | -19.5 | -0.2 | -3.9 | 3.6 | 3997
CCCCn1c(O)c(C(CC)=Nc2ccc(OC)cc2OC)c(=O)[nH]c1=O | 5.2 | -2.7 | -3.7 | -9.3 | 3.1 | -10.2 | 9292
COc1ccc(CCNCC(O)COc2ccc(OC)cc2C(C)(C)C)cc1 (configuration not stated) | -20.6 | -2.5 | 2.2 | 8.0 | 7.1 | 0.2 | 6182
COc1ccc(-c2n[nH]c(C)c2-c2cscn2)c(O)c1 | 0.6 | 1.3 | -14.0 | 11.4 | 2.5 | -8.1 | 4377
CCNC(=O)C12CCC(C)(C(=O)O1)C2(C)C (configuration not stated) | 5.9 | 0.2 | -21.8 | 8.9 | 3.4 | -6.6 | 4487
CCn1nc(C(=O)Nc2ccccc2N2CCCC2)c2ccccc2c1=O | -4.5 | 3.6 | -14.9 | 6.5 | 2.4 | 9.7 | ?
Fc1ccc(-n2[nH]nnc2=S)cc1N1CCCC1 | -6.6 | 7.0 | -24.9 | 7.6 | 5.6 | -5.5 | 13013
Fc1cc(F)c2nc(N3CCCC3)sc2c1 | 2.4 | 8.9 | -33.7 | nt | nt | 0.1 | 4143
Cc1cc(NO)c(C(C)C)cc1N=O | 17.3 | -1.0 | -12.7 | 4.1 | 10.9 | -1.7 | 1955
COc1ccc(CN2[C@@H](CC(=O)O)c3cc(C(F)(F)F)ccc3S2(=O)=O)cc1 | nt | nt | -15.8 | nt | nt | -0.4 | 3443
CCCNC(=S)N1CCC(n2cnc3ccccc32)CC1 | -3.8 | 1.0 | -13.5 | -0.3 | 5.0 | -19.4 | 4140
CS(=O)(=O)c1ccc(C(=O)CN2C(=O)NC3(CCCc4ccccc43)C2=O)cc1 (configuration not stated) | 0.0 | 3.9 | -20.0 | -3.4 | -1.7 | nt | 3876
Cc1sc(NC(=S)NC(=O)CCc2ccccc2)c(C(N)=O)c1C | 14.0 | 5.0 | 54.5* | 6.4 | -4.2 | nt | 2587
CCCN(CC1CC1)C(=S)NC(=O)C1CC1 | 1.4 | -0.3 | -12.3 | 18.0 | 10.3 | -1.6 | 3217
COc1ccc(CCNC(=O)c2cc3c(=O)n4ccccc4nc3n(CC3CCCO3)c2=N)cc1 (configuration not stated) | -2.2 | -2.6 | -5.8 | nt | nt | nt | 6773
C=CCN1C(=O)c2ccc(C(=O)OCC(=O)Nc3ccc(S(N)(=O)=O)cc3)cc2C1=O | 2.7 | 0.1 | -12.7 | 2.4 | -0.5 | 9.1 | nt
COc1ccc(CN2CCN(C(=O)c3cc(-c4cccnc4)nc4ccc(Cl)cc34)CC2)c(OC)c1OC | 4.9 | 8.9 | -5.5 | 4.4 | 8.9 | -0.4 | 4291
O/N=C(/Cc1ccccn1)c1ccccc1 | nt | nt | -13.0 | nt | nt | 1.8 | 4284
CC(C)C1CC(CCNCc2ccc3c(c2)OCO3)(c2ccccc2)CCO1 (configuration not stated) | 0.7 | 1.1 | -3.3 | 14.2 | 1.2 | -8.3 | 5297
CC(C)Sc1cc(N2CCCC2)nc(-c2ccccc2Cl)n1 | 45.5 | 1.1 | -11.4 | -6.4 | -9.4 | 6.3 | 9732
COC(=O)C(O)(c1c(C)[nH]n(-c2ccccc2)c1=O)C(F)(F)F (configuration not stated) | 11.0 | 49.5 | -11.0 | nt | nt | -0.8 | 2182
CC(=O)c1cccc(NC(=O)C(=O)Nc2cccc3ccccc23)c1 | -0.7 | 3.1 | -30.5 | -10.4 | 7.1 | -15.0 | 4197
CCOC(=O)C(CC(C)C)CP(=O)(O)CNC(=O)OCc1ccccc1 (configuration not stated) | -0.6 | -5.9 | -5.3 | nt | nt | 0.5 | 2709
N#C/C(=C\Nc1ccccc1O)c1nc2ccccc2o1 | 13.0 | 0.8 | -38.6 | -0.3 | -2.6 | -5.3 | 2192
Cc1ccc(-c2nsc(SCC(=O)NCC3CCCO3)n2)cc1 (configuration not stated) | 16.2 | 6.4 | -23.9 | nt | nt | -3.5 | 3146
CCOC(=O)c1ccc(S(=O)(=O)N2CC(=O)Nc3ccccc32)cc1 | 0.2 | 1.6 | -8.6 | 12.9 | 2.1 | -12.7 | 5937
CC[C@]1(C(=O)OC)[C@H]2C(=O)N(Cc3ccccc3)C(=O)[C@H]2[C@H]2CN(C)C(=NC)N21 | 3.1 | 1.4 | -23.5 | -1.9 | -1.7 | nt | 4013
COc1cc(C=NNC(=O)c2ccccc2)ccc1OS(=O)(=O)c1ccccc1 | 89.7* | -3.4 | nt | 3.6 | 5.5 | nt | nt
c1ccc(SCc2cc(-c3ccccc3)no2)cc1 | 7.8 | 7.6 | -53.5 | 5.4 | 14.8 | -4.0 | 4199
CC(C)CN(C(=O)CN1C(=O)NC2(CCc3ccccc32)C1=O)C1CCS(=O)(=O)C1 (configuration not stated) | -3.1 | -0.8 | 0.0 | -3.1 | 5.3 | nt | 3957
CCc1cc2c(=O)n(Cc3ccco3)c(SCC(=O)N3CCCc4ccccc43)nc2s1 | 2.7 | 1.7 | -19.4 | 4.1 | 3.6 | -4.8 | 9950
CN(C(=O)CSc1nc(-c2cccs2)nc2ccccc12)C1CCS(=O)(=O)C1 (configuration not stated) | 8.2 | 3.5 | -18.0 | 6.7 | 8.4 | nt | 3541
O=C(Nc1cccc(S(=O)(=O)N2CCOCC2)c1)c1cccc(S(=O)(=O)N2CCCC2)c1 | -6.9 | 1.6 | -24.0 | 1.3 | 1.0 | nt | 5521
CCOC(=O)c1ccc(NC(=O)COc2ccc(-n3cnnn3)cc2)cc1 | -4.0 | 2.3 | -16.5 | -2.8 | 8.1 | 0.7 | 2833
CCN(C(=O)C1CCN(c2nc(-c3ccc(OC)cc3)no2)CC1)c1ccc(OC)cc1 | -11.3 | -10.0 | -30.8 | 0.0 | 8.9 | 0.9 | 5707
Cc1ccc(C2/C(=C(/O)c3ccccc3)C(=O)C(=O)N2CCN2CCOCC2)o1 (configuration not stated) | 2.9 | 5.9 | -11.5 | 8.8 | 8.6 | -0.5 | 20379*
O=C(CCCN1C(=O)c2ccccc2C1=O)Nc1ccc(Br)cn1 | 4.7 | 4.5 | -22.9 | -3.1 | 7.0 | -7.7 | 11534
CCOC(=O)C1=C(C)NC(=S)NC1c1cc(C)sc1C (configuration not stated) | -2.0 | 0.8 | -6.7 | -2.6 | 14.9 | 2.5 | 3851
COc1ccc(N(CC(=O)NCc2ccccn2)S(=O)(=O)c2ccccc2[N+](=O)[O-])c(OC)c1 | -19.4 | 4.4 | -35.7 | 10.6 | -6.9 | 5.6 | 4371
O=C1N(c2ccccc2C(F)(F)F)O[C@]1(c1ccccc1)C1CCCC1 | 12.1 | 9.9 | -5.9 | 21.0 | 7.2 | nt | 3886
O=C(CCC(=O)Nc1cc(C(F)(F)F)ccc1Cl)N/N=C\c1cc([N+](=O)[O-])ccc1O | nt | nt | -13.1 | nt | nt | -3.6 | 3603
Cn1c(N)c(C(=O)COC(=O)c2cccs2)c(=O)n(C)c1=O | 0.4 | 5.9 | -12.1 | 5.3 | -1.4 | -4.7 | 2297
O=C(NCc1ccccc1)C1CCCN1C(=O)Nc1ccccc1[N+](=O)[O-] (configuration not stated) | 2.6 | 1.4 | -20.3 | 10.7 | 10.9 | -4.3 | 3516
Cc1cc(CN(C)Cc2cn(C)nc2-c2ccc(Oc3ccccc3)cc2)on1 | 3.2 | 4.0 | -9.1 | 10.0 | 9.7 | -10.2 | 5979
O=C(NC1CCC(O)CC1)c1ccc(NS(=O)(=O)c2cccc([N+](=O)[O-])c2)cc1 (configuration not stated) | 2.5 | 3.8 | -13.8 | 5.8 | 9.5 | nt | 3760
CC1N(C(=O)N2CCOCC2)CCN1S(=O)(=O)c1cccc(C(F)(F)F)c1 (configuration not stated) | 2.7 | 4.2 | -16.3 | -16.9 | -3.8 | -13.3 | 4131
COc1ccc(Cn2nnnc2C(CC(C)C)N2CCN(c3ccccc3)CC2)cc1 (configuration not stated) | 12.6 | -3.1 | 0.4 | nt | nt | -15.1 | 4613
Cc1ccc(-n2ncc3c2CC(C)(C)CC3NC(=O)CCCN2CCCCC2=O)cc1 (configuration not stated) | 14.3 | 4.8 | -3.8 | -2.7 | -4.6 | -6.4 | 4010

Profiles, quoted from the list:
Cc1ccc(C2/C(=C(/O)c3ccccc3)C(=O)C(=O)N2CCN2CCOCC2)o1 (configuration not stated) as listed: Sa ugtP lethal = 2.9; RN4220 kill = 5.9; PrP 5UTR inh = -11.5; Mtb hypoxia rep = 8.8; Mtb hypoxia rep growth = 8.6; BJeLR lethal = -0.5; Bead autofluor = 20379*
CC(C)C1CC(CCNCc2ccc3c(c2)OCO3)(c2ccccc2)CCO1 (configuration not stated) as listed: Sa ugtP lethal = 0.7; RN4220 kill = 1.1; PrP 5UTR inh = -3.3; Mtb hypoxia rep = 14.2; Mtb hypoxia rep growth = 1.2; BJeLR lethal = -8.3; Bead autofluor = 5297
COc1ccc(CCNCC(O)COc2ccc(OC)cc2C(C)(C)C)cc1 (configuration not stated) as listed: Sa ugtP lethal = -20.6; RN4220 kill = -2.5; PrP 5UTR inh = 2.2; Mtb hypoxia rep = 8.0; Mtb hypoxia rep growth = 7.1; BJeLR lethal = 0.2; Bead autofluor = 6182

2 of the compounds above, field by field.
Structure: O=C(NC1CCC(O)CC1)c1ccc(NS(=O)(=O)c2cccc([N+](=O)[O-])c2)cc1 (configuration not stated)
  Sa ugtP lethal = 2.5
  RN4220 kill = 3.8
  PrP 5UTR inh = -13.8
  Mtb hypoxia rep = 5.8
  Mtb hypoxia rep growth = 9.5
  BJeLR lethal = nt
  Bead autofluor = 3760
Structure: CC1N(C(=O)N2CCOCC2)CCN1S(=O)(=O)c1cccc(C(F)(F)F)c1 (configuration not stated)
  Sa ugtP lethal = 2.7
  RN4220 kill = 4.2
  PrP 5UTR inh = -16.3
  Mtb hypoxia rep = -16.9
  Mtb hypoxia rep growth = -3.8
  BJeLR lethal = -13.3
  Bead autofluor = 4131
